Bioassay records from PubChem BioAssay.
VDR inh: inhibitors of human vitamin D receptor; P11473; VDR-SRC2-3 peptide fluorescence polarization, 2 h; Potency, µM, for the others: max response, negative = inhibition, actives largely listed as inhibitors; 400,000 compounds, 0.93% hits; active means well fitted inhibition curve with a large enough effect; inconclusive means small, poorly fitted or top-dose-only effect, or another doubt; inactive means no such curve, though single readings can be large or run the other way; further: series mostly up to about 120 µM
Target sequence (P11473 whole entry, looked up): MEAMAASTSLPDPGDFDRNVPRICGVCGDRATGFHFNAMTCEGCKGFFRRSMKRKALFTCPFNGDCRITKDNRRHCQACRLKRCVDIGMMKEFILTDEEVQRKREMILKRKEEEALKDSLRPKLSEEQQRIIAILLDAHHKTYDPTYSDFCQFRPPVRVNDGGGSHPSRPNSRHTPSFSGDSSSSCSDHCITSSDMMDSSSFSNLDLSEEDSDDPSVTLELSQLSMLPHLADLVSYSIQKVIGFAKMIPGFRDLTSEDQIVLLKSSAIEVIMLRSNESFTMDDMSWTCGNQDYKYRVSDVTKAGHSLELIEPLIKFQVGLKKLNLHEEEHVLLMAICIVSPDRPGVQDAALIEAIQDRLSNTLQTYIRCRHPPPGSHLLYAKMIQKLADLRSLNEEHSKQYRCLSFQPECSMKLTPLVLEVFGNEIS
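Measured by FP: displacement of SRC2-3 coactivator peptide from VDR by library compounds, following a two-hour ambient incubation.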
* = called active by the depositor; u = inconclusive; & = joins results of further samples; [ ] = dose if it differs, or a comment. On the % scale 0 is the no-effect control and ±100 the full control effect; potency means the concentration at half of the fitted maximal effect. A portion of the library; rates above refer to the full screens.

canonical_smiles	VDR inh
COc1cc(-c2noc(CCCC(=O)NCc3ccccc3)n2)cc(OC)c1OC	-15.3%
O=c1[nH]c(=O)n(CCOc2ccc(Cl)cc2)cc1Br	8.3%
COc1ccc(C2CC(=O)c3cc(-c4nc(-c5cccc([N+](=O)[O-])c5)cs4)c(=O)n(-c4ccccc4C)c3C2)cc1 (centres undefined)	1.5%
CCOC(=O)CS(=O)(=O)c1nc(-c2ccccc2)cc(C(F)(F)F)n1	20µM*
C[C@@]12C(=O)Nc3ccc(Cl)cc3C(=O)N1[C@H]1c3cc(Cl)ccc3OC[C@@H]1[C@@H]2c1ccccc1	1.6%
COc1cccc(NC(=S)N(CCN(C)C)C(C)c2cccnc2)c1 (centres undefined)	3.0%
CC(=O)N1CCCN(C(=O)c2ccc3nc(Cc4ccccc4F)oc3c2)CC1	-0.2%
COc1ccc(C)cc1NC(=O)C1CCC(CNS(=O)(=O)c2ccc3c(c2)CCCC(=O)N3)CC1 (centres undefined)	16.0%
COc1ccc(CNC(=O)C(C)Sc2nc(-c3ccccc3)cc(C(F)(F)F)n2)cc1 (centres undefined)	-1.1%
COc1ccc(S(=O)(=O)N2c3ccc(F)cc3CCC2C)cc1 (centres undefined)	-15.2%
CCOc1cc2sc(N3CCC(C(=O)Nc4ccccc4C(=O)OC)CC3)nc2cc1Br	-11.1%
O=C(COC(=O)c1ccc(Br)cc1)NCc1ccccc1	-16.8%
COc1ccc(NC(=O)COc2coc(CN3CCCc4ccccc43)cc2=O)cc1	4.8%
Cc1cc(C)nc(NC(=O)CSc2nn(-c3ccccc3)c(=S)s2)n1	3.9%
CSc1nsc(SCC(=O)Nc2ccc(C(N)=O)cc2)n1	13.6%
CCOc1ccc2c(c1)C(N(CCN1CCOCC1)C(=S)Nc1ccccc1OC)CC(C)(C)O2 (centres undefined)	-14.8%
Cc1ccc(SCC2(O)CCN(C(=O)c3ccc(Cl)cc3)CC2)cc1	-2.9%
CC(/C=N/NC(=O)Cc1cc(=O)[nH][nH]1)=C\c1ccccc1	-8.0%
CCS(=O)(=O)N1CCN(CC2CC3C=CC2C3)CC1 (centres undefined)	-15.1%
O=C(Nc1ccc([N+](=O)[O-])cc1)C1(c2ccccc2)CCOCC1	-13.4%
S=C(NCC1CCCO1)N1CCN(c2cccc(Cl)c2)CC1 (centres undefined)	5.1%
Cc1cccc(C(=O)OCC(=O)N(CC(C)C)c2c(N)n(Cc3ccccc3)c(=O)[nH]c2=O)c1C	1.7%
COc1ccc(-n2nc([N+](=O)[O-])c(=NCc3ccc4c(c3)OCO4)n2O)cc1	-5.3%
CCOc1ccc(C2C(C(=O)c3cccs3)=C(O)C(=O)N2Cc2cccnc2)cc1OC (centres undefined)	u
Cc1cccc(Nc2nc(-c3ccncc3)cs2)c1	-3.1%

Marked active in VDR inh, of those listed so far:
canonical_smiles	VDR inh
CCOC(=O)CS(=O)(=O)c1nc(-c2ccccc2)cc(C(F)(F)F)n1	20µM*

Continued.
canonical_smiles	VDR inh
CC(=O)c1c(C)[nH]c(C(=O)OCc2nc3ccsc3c(=O)[nH]2)c1C	5.3%
CCOC(=O)N1CCN(S(=O)(=O)c2cc(Br)cc3c2N(C(=O)C2CC2)CC3)CC1	3.7%
Cn1c(CCNC(=O)c2ccccc2)nc2cc(NC(=O)C3CCCCC3)ccc21	-3.1%
c1ccc2cc(C3CCCCC3)ncc2c1	-1.7%
COc1ccc(NC(=O)[C@@H](NC(N)=O)C(C)C)cc1Cl	-21.2%
CC(C)(C)C(=O)N1CCN(C(=O)c2ccco2)CC1	-27.4%
O=S(=O)(NC1CC1)c1cccc(S(=O)(=O)N2CCCC2)c1	-1.3%
COc1ccccc1/C=C/C(=O)OCC(=O)NC1CCS(=O)(=O)C1 (centres undefined)	13.8%
Cn1c(CNC(=O)CNC(=O)c2ccccc2F)cc(=O)n(C)c1=O	-20.5%
COc1ccc(S(=O)(=O)N2CCC(C(=O)Nc3ccccc3C)CC2)c2cccnc12	-4.2%
Cc1ccc(C)c(S(=O)(=O)N2CCN(c3ncnc4sccc34)CC2)c1	-6.8%
Cc1ccc(-n2ncc(C(=O)Nc3c(Cl)cccc3Cl)c2C2CCNCC2)cc1	9.9%
Cc1ccc(N(C(C)C(=O)Nc2cccc(N(C)S(C)(=O)=O)c2)S(C)(=O)=O)cc1 (centres undefined)	8.0%
Cc1cc(SCC(=O)Nc2ccc(O)cc2)n2nc(C)c(-c3ccccc3)c2n1	0.7%
CCOC(=O)c1c(-c2ccccc2)oc2ccc(N(C(C)=O)S(=O)(=O)c3cc(C)ccc3C)cc12	-16.1%
O=C(NCCc1nc(-c2ccccc2Cl)no1)c1ccccc1	3.5%
Cc1ccc(-c2nc(CS(=O)CC(=O)NC3CC3)c(C)o2)cc1 (centres undefined)	-26.4%
Cc1ccc(C(=O)NCCNC(=O)c2ccc(F)cc2)cn1	15.0%
COC(=O)c1ccc(C(=O)OC)c(NC(=O)COC(=O)c2ccc(OC)c(OC)c2OC)c1	-4.4%
Cc1cccc(C)c1N(CC(O)Cn1c2ccccc2c2ccccc21)S(C)(=O)=O (centres undefined)	4.8%
COc1cc(NC(=O)Cn2cnc(S(=O)(=O)N3CCCCC3)c2)cc(OC)c1OC	-9.3%
CN(C)S(=O)(=O)c1ccc(C(=O)Nc2nc(-c3ccccc3)c(C(=O)c3ccccc3)s2)cc1	-8.6%
O=S(=O)(c1ccc(OC(F)(F)F)cc1)N1CCC(c2nnnn2-c2ccc(F)cc2)CC1	-7.8%
CN(C)c1nc(N(C)C)nc(N(C#N)CCOc2ccccc2)n1	-3.9%
NNC(=O)Cn1c(-c2ccccc2)cc2ccccc21	7.8%

(continued)
structure	VDR inh
O=[N+]([O-])c1ccc(Cl)c(CN2CCC(O)CC2)c1	u
CCCn1c(NC(=O)c2ccco2)nc2ccccc21	-0.3%
Cn1nc(C(=O)NCC2CCCO2)c2ccccc2c1=O (centres undefined)	-1.2%
CCOc1ccc(C(=O)NC2CCN(CC(=O)NCc3ccccc3)CC2)cc1	-6.7%
CCOC(=O)C1=C(CC)Nc2ccccc2N=C1N	-10.4%
COc1ccc(C(=O)NCc2nnc(SCC(=O)Nc3nc4ccc(C)cc4s3)o2)cc1OC	-5.3%
CC(C)(C)OC(=O)N1CCC(c2c(C(=O)NCc3ccccn3)cnn2-c2ccc(F)cc2)CC1	0.9%
COc1ccc(Cl)cc1N(CC(=O)Nc1ccccc1C(=O)N1CCOCC1)S(C)(=O)=O	u
CC(=NCc1ccco1)c1c(O)n(C2CCCCC2)c(=O)[nH]c1=O	7.0%
CC(C)(C)C1CCC(OC(=O)c2ccncc2)CC1 (centres undefined)	-9.6%
Cc1ccc2nc(SCC(=O)Nc3ccccc3F)nc(=O)n2c1	-17.0%
O=C(N/N=C/C=C/c1ccccc1)c1n[nH]c2c1CCC2	10.0%
O=C(CCl)Nc1ccccc1Sc1ccc(Cl)cc1	-1.8%
Cc1cc2c(C)nc(N/N=C/c3ccccc3)nc2o1	-4.5%
CCOC(=O)CCCSc1nnc(CCCCCN2C(=O)c3cccc4cccc(c34)C2=O)o1	-8.8%
COc1ccc(S(=O)(=O)NCC(c2ccco2)S(=O)(=O)c2cccs2)cc1C (centres undefined)	10.4%
CC(=O)Nc1cccc(C(=O)N(CCc2ccccc2)Cc2ccccc2)c1	-13.7%
O=C(N[C@H]1C/C=C\C[C@@H](CC(=O)N(CCO)Cc2ccccc2)C(=O)NC[C@H](c2ccccc2)OC1=O)OCC1c2ccccc2-c2ccccc21	9.4%
COCCn1c(=O)c(-c2cccs2)nc2cnc(Oc3cccc(Cl)c3)nc21	-0.3%
COc1cccc(CNCC(=O)N2C(C)CCCC2C)c1 (centres undefined)	8.6%
COc1ccc(-n2c(C)c(C(C)=O)c(C(C)=O)c2C)cc1OC	-12.2%
CNC(=O)c1[nH]cnc1C(=O)N[C@@H](CC(C)C)C(=O)OC(C)(C)C	-20.7%
Nn1c(SCC(=O)Nc2cccc(S(N)(=O)=O)c2)nnc1C1CC1	-14.2%
COc1cc(CN2CC(=O)N(c3ccccc3Cl)C2=S)cc(OC)c1OC	3.7%
CN(C(=O)c1cccc(NC(=O)Cc2ccc(NC(=O)C3CCN(C(=O)c4ccccc4)CC3)cc2)c1)C1CCC1	1.6%
O=C(COC(=O)CNC(=O)c1ccccc1F)Nc1cccnc1Cl	-4.2%
CCOc1ccc(CNCc2c(C(=O)O)n(Cc3ccc(OC)cc3)c3ccccc23)cc1	8.2%
COc1ccc2sc(N(CCCN(C)C)C(=O)c3ccc(S(=O)(=O)N(C)Cc4ccccc4)cc3)nc2c1	-4.1%
Cc1c(N=C(N)/N=C(\N)Nc2ccccc2)c(=O)n(-c2ccccc2)n1C	9.4%
COc1ccc(CNC(=O)[C@@H]2CC=C[C@@H]3CCN(Cc4ccc(Cl)c(Cl)c4)C(=O)[C@@H]32)cc1	-1.6%
CCNC(=O)CC1SC(=Nc2ccc(C)cc2)NC1=O (centres undefined)	-1.0%
Cc1ccc(NC(=O)CCC(=O)OC(C(=O)c2ccc(C)c(C)c2)c2ccccc2)c(C)c1 (centres undefined)	-0.4%
O=C(CSc1nnc(-c2cccnc2)n1-c1ccccc1)N1CCN(c2ccc(F)cc2)CC1	4.2%
Cc1nc2ccc(N)nc2nc1C	-14.9%
COc1cc(N)c(Cl)cc1C(=O)OCC(=O)N1c2ccccc2NC(=O)C1(C)C	-8.9%
Cc1cccc(C)c1NC(=O)c1cccc(COc2cc(Cl)ccc2Cl)c1	13.9%
Cc1ccccc1OCCn1cc(/C=C(\C#N)C(=O)NCc2ccco2)c2ccccc21	3.1%
Cc1ccc(C)c(OCCn2c(=O)c3c(ncn3C3CCCC3)n(Cc3ccccc3)c2=O)c1	23.7%
CCOc1ccc(-c2nnc3ccc(SCC(=O)Nc4cc(C)on4)nn23)cc1	8.3%
CCC(C)(C)c1ccc(OCCCC[n+]2cccc(C)c2)c(C(C)(C)CC)c1	0.0%

Some of the entries above in a different format.
| VDR inh | Molecule |
| --- | --- |
| -14.2% | Nn1c(SCC(=O)Nc2cccc(S(N)(=O)=O)c2)nnc1C1CC1 |
| 3.7% | COc1cc(CN2CC(=O)N(c3ccccc3Cl)C2=S)cc(OC)c1OC |
| 1.6% | CN(C(=O)c1cccc(NC(=O)Cc2ccc(NC(=O)C3CCN(C(=O)c4ccccc4)CC3)cc2)c1)C1CCC1 |
| -4.2% | O=C(COC(=O)CNC(=O)c1ccccc1F)Nc1cccnc1Cl |
| 8.2% | CCOc1ccc(CNCc2c(C(=O)O)n(Cc3ccc(OC)cc3)c3ccccc23)cc1 |

Remaining list, next part:
structure	VDR inh
COC(=O)[C@@H](Cc1c[nH]c2ccccc12)NC(=O)CNC(=O)c1ccccc1OC	9.7%
Cc1cccc(-c2nnc(SCc3ccccc3)o2)c1	-3.2%
CCOC(=O)N1CCN(C(=O)CN(c2cccc(C)c2)S(=O)(=O)c2ccccc2)CC1	2.3%
COC(=O)COc1cc(=O)oc2ccc(NS(=O)(=O)c3ccccc3)cc12	-10.7%
CCOC(=O)N1CCc2c(sc3c2c(=O)n(-c2ccc(Cl)cc2)c(=O)n3Cc2cccc(C)c2)C1	-3.6%
Cc1ccc(NC(=S)NC2CCN(Cc3ccccc3)CC2)cc1	-3.8%
Cc1ccc(CNC(=O)C2CCC(=O)N(CCc3cccc(F)c3)C2)cc1 (centres undefined)	-7.1%
Cc1cc(C)c(S(=O)(=O)N2CCCOC2CNC(=O)C(=O)NCc2cccs2)c(C)c1 (centres undefined)	1.6%
O=C1c2ccsc2SCCN1Cc1c(Cl)cccc1Cl	-27.1%
Cc1onc(-c2ccccc2)c1CNS(=O)(=O)c1ccc(F)cc1F	-5.9%
CCOC(=O)c1sc(NC(=O)C2CSC3(C)CCC(=O)N23)nc1C (centres undefined)	-1.6%
COc1ccccc1-c1ccc(SCC(=O)N2CCOCC2)nn1	0.5%
CC(C)OC(=O)c1cccc(NC(=O)c2ccccc2)c1	-5.2%
CCOc1ccc(NC(=O)CSc2nccn2Cc2ccco2)cc1	-12.7%&6.1%
CCN(CCCNC(=O)C1CCCN(S(=O)(=O)CC)C1)c1cccc(C)c1 (centres undefined)	9.4%
CC(=O)CC1OC(=O)C(Br)=C1NCc1ccccc1 (centres undefined)	u
COc1ccccc1-c1nnc(SCC(=O)OC(C)C)o1	-4.5%
CCOC(=O)c1[nH]c(C)c(C(=O)OCC(=O)N(CC)C2CCS(=O)(=O)C2)c1C (centres undefined)	-1.1%
O=C1C(=O)N(CCO)C(c2ccc(Br)cc2)/C1=C(\O)c1ccccc1 (centres undefined)	-11.6%
CCOC1OC(=O)C(Cl)=C1Nc1cc(C)ccc1C (centres undefined)	14.4%

The final two entries of the section above are carried over, then new ones follow:
structure	VDR inh
O=C1C(=O)N(CCO)C(c2ccc(Br)cc2)/C1=C(\O)c1ccccc1 (centres undefined)	-11.6%
CCOC1OC(=O)C(Cl)=C1Nc1cc(C)ccc1C (centres undefined)	14.4%
COc1ccc(Br)cc1CN(C)CC(=O)Nc1cccc(S(N)(=O)=O)c1	33.1%[activator]
COC(=O)c1ccccc1NC(=O)C(=O)NCC1CCCO1 (centres undefined)	-14.0%
O=C(O)C1Cc2c([nH]c3ccccc23)C(c2ccc3c(c2)OCO3)N1 (centres undefined)	-15.3%
Cc1ccc(CS(=O)(=O)CC(C)(O)c2ccc(Cl)cc2)cc1 (centres undefined)	28.7%
Cc1ccc(S(=O)(=O)NCCc2cc3ccc(C)cc3[nH]c2=O)cc1	13.0%
CN(C)c1cccc2c(S(=O)(=O)Nc3ccccn3)cccc12	4.0%
O=C(N/N=C/c1ccc(F)cc1)c1cc(-c2ccco2)nc2ccccc12	2.9%
COc1cccc(-n2nnc3c(=O)n(CC(=O)N4CCC(Cc5ccccc5)CC4)cnc32)c1	-4.1%
Cc1ccc(S(=O)(=O)N2CCCCC2C(=O)NCc2ccco2)cc1 (centres undefined)	u
COc1ccc(OC)c(CNC(=O)c2cc3ccc4cccnc4c3[nH]2)c1	5.5%
CCc1nnc(NC(=O)CCC(=O)NC2CCCCCCC2)s1	3.0%
O=C(Nc1cccc2ccccc12)c1onc2c1CCCC2	11.6%
